# KCNQ2 enhance – potentiators of rat KCNQ2 potassium channel; 310,000 compounds, 0.54% hits; CHO-K1 KCNQ2, FluxOR thallium flux fluorescence; hits give high values; B-score at 10 µM; O88943;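 active = fluorescence ratio B-score at least 3 SD of library B-scores, with initial fluorescence B-score within 3 SD, cut at about 5.3 in these data; same plate scores as AID 2156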;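 also: B-score of peak minus minimum over baseline fluorescence ratio after K+ and Tl+ stimulus; positive B-score means potentiation of KCNQ2 with more thallium influx and brighter signal; only the inactives scoring about 0 or higher are listed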
# Target sequence (O88943 whole entry, looked up): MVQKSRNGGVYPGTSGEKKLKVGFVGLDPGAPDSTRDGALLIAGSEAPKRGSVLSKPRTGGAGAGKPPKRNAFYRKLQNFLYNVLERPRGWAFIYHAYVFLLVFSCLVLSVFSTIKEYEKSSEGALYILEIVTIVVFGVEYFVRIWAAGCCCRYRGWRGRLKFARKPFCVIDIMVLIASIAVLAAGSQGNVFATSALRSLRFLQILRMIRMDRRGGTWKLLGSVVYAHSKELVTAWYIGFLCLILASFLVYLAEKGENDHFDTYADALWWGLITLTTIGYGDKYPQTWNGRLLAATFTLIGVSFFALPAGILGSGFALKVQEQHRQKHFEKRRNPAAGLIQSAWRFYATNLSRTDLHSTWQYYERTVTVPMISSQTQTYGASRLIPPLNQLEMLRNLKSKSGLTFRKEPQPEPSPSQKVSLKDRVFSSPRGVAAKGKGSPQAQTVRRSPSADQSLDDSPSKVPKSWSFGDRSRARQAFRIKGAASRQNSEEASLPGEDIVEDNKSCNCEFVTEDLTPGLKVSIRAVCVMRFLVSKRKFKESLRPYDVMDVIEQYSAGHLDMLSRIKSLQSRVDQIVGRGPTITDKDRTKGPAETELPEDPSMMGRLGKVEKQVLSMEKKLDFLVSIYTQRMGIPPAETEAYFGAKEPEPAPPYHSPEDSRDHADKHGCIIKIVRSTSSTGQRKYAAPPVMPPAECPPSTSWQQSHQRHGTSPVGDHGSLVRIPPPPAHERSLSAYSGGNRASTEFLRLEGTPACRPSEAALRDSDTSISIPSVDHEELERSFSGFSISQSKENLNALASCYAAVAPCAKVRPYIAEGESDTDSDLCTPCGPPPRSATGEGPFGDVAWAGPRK
# KCNQ2 enhance baseline – recorded beside KCNQ2 enhance, whose call it bears; B-score; compound at 10 µM; measured here: initial fluorescence intensity artifact check;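 brightness before thallium and not channel activity; 0 = typical well and far values either way flag optical interference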
# Starred values were filed as active, the others as inactive. Some of the compounds tested. The share of hits here may be higher or lower than overall.
SMILES,KCNQ2 enhance,KCNQ2 enhance baseline
COc1ccc(NS(=O)(=O)c2ccc(C)c(C(=O)N3CCC3)c2)cc1,0.88,-0.74
CC(=O)[C@@]1(O)CC[C@H]2[C@@H]3C[C@H](C)C4=CC(=O)C=C[C@]4(C)[C@@]3(F)[C@@H](O)C[C@@]21C,1.2,0.67
COc1ccc(-n2c(C)nnc2SCC(=O)N2C(C)CCCC2C)cc1 (configuration not stated),0.68,-0.89
O=C(Nc1ccc2oc(-c3ccccc3F)nc2c1)c1ncn[nH]1,2.4,1.2
COc1ccc(/C=N/NC(=O)c2ccccc2O)cc1COc1ccccn1,0.16,1.3
O=C(CCC1CCCC1)c1c(O)c2ccccc2oc1=O,1.2,-0.83
COc1ccc(CN2CCCCC2c2cccnc2)c(OC)c1C (configuration not stated),0.47,-0.65
COc1ccc(NC(=O)CSc2nnc(-c3cccs3)n2Cc2ccco2)cc1OC,0.57,0.06
CCCC(=O)Nc1ccccc1NC(C)=O,0.83,-0.03
COc1ccc(-n2nc(C(=O)c3cccs3)cc(-c3nc4ccccc4[nH]3)c2=N)cc1,0.51,0.81
O=C1COc2ccc(C(=O)COC(=O)c3cc(S(=O)(=O)NCc4ccccc4)ccc3O)cc2N1,0.71,-1.4
COc1ccc(OC)c(NC(=O)c2cc(-c3cc(C)c(C)cc3O)n[nH]2)c1,0.29,1.6

# Record cards, from the list above. Order of screens: KCNQ2 enhance, KCNQ2 enhance baseline
# `CCCC(=O)Nc1ccccc1NC(C)=O` in the list: 0.83, -0.03
# `CC(=O)[C@@]1(O)CC[C@H]2[C@@H]3C[C@H](C)C4=CC(=O)C=C[C@]4(C)[C@@]3(F)[C@@H](O)C[C@@]21C` in the list: 1.2, 0.67
# `COc1ccc(/C=N/NC(=O)c2ccccc2O)cc1COc1ccccn1` in the list: 0.16, 1.3
# `O=C1COc2ccc(C(=O)COC(=O)c3cc(S(=O)(=O)NCc4ccccc4)ccc3O)cc2N1` in the list: 0.71, -1.4
# `COc1ccc(OC)c(NC(=O)c2cc(-c3cc(C)c(C)cc3O)n[nH]2)c1` in the list: 0.29, 1.6

# (further entries)
SMILES,KCNQ2 enhance,KCNQ2 enhance baseline
COc1ccccc1NC(=O)N1CCCC1C(=O)NCc1cccs1 (configuration not stated),0.67,-0.13
COCCCNC(=O)/C=C/c1cccc(Cl)c1,0.23,0.1
NNc1ccc2c(C(F)(F)F)cc(C(F)(F)F)nc2n1,0.33,-1.3
CC(C)c1c(C(=O)N/N=C2\CCc3ccccc32)nnn1-c1nonc1N,1,1.6
Cc1sc(NC(=O)c2cc3ccccc3oc2=O)c(C(=O)OC(C)C)c1-c1ccccc1,0.96,0.05
O=C(O)/C=C/C(=O)NCc1csc2ccccc12,0.07,0.16
COc1ccc2[nH]c(C(=O)N(C)Cc3ccccc3)c(C)c2c1,0.18,-1.9
Cc1ccc(S(=O)(=O)N(CC(=O)N2CCOCC2)c2ccc(Br)cc2)cc1,1.4,-0.22
NCCCC(=O)N1c2ccccc2Sc2ccccc21,0.13,-1.3
O=C(CN1C(=O)NC2(CCCC2)C1=O)NCCN1C(=O)S/C(=C\c2ccccc2F)C1=O,1.5,-0.04
C/C(N)=C(/C#N)C(=O)CSc1nc2ccccc2c(=O)n1Cc1ccc(F)cc1,5.5*,0.03*
CCCCCCC/C=N/Nc1nnc(Cc2ccccc2)c(=O)[nH]1,0.59,-1
CCOC(=O)N1CCN(C(=O)CCn2nc(-c3ccc(Cl)cc3)ccc2=O)CC1,1.2,0.16
O=C1C(=O)N(CCCn2ccnc2)C(c2ccc(Cl)cc2)/C1=C(\O)c1ccc2c(c1)OCCO2 (configuration not stated),0.1,3.2
CN(C)S(=O)(=O)c1ccc(C(=O)OC2CCOC2=O)cc1 (configuration not stated),0.53,2.1
Cn1nnnc1SCc1nc2ccccc2[nH]1,0.24,0.52
CCCCN(C)C(=O)c1ccc2c(c1)N(CC)C(=O)c1ccccc1S2=O (configuration not stated),0.61,-0.16
COC(=O)C1CC(c2ccc(Cl)cc2)=NO1 (configuration not stated),0.02,0.43
Cc1cccc(NC(=O)CNCC(=O)Nc2cccc(C)c2C)c1C,0.48,1.2
COc1ccc(CC(=O)Nc2sccc2C#N)cc1S(=O)(=O)N1CCOCC1,1,1.2
O=C(CN1CCN(C(=O)c2ccco2)CC1)Nc1cccc([N+](=O)[O-])c1,0.19,-1.2
O=C1c2ccc3c4c(ccc(c24)C(=O)N1c1ccc(O)cc1)C(=O)N(c1ccc(O)cc1)C3=O,11*,-0.04*
CCn1cc(C(=O)NCCCOC(C)C)c(=O)c2cc(S(=O)(=O)N3CCCC3)ccc21,0.03,-3.1
O=[N+]([O-])c1cccnc1Sc1ccc(Br)cc1,1.3,0.83
Cc1nn(C(C)C(=O)NC2CCC(C)CC2)c(=O)c2nn(-c3ccccc3)c(C)c12 (configuration not stated),1.8,0.19
C=CCNC(=O)C(=O)N/N=C/c1ccco1,0.87,0.08
CCOC(=O)c1cccc(NC(=O)CN2C(=O)C3CC=CCC3C2=O)c1 (configuration not stated),0.49,1.4
Cc1ccc(-c2n[nH]c(S(C)(=O)=O)c2C#N)cc1,0.03,0.4
Cc1ccccc1CNC(=O)CN1C(=O)c2ccccc2S1(=O)=O,1.1,-0.45
COc1ccc([N+](=O)[O-])cc1N(CC(O)CN(C)C)S(=O)(=O)c1ccccc1 (configuration not stated),1.6,1.1
CCCCCOc1ccc(N2C(=O)C(C)CNC2=S)cc1 (configuration not stated),0.35,-0.84
CC1=C(C(=O)Nc2cccc(C(=O)NC3CCCCC3C)c2)SCCO1 (configuration not stated),1.1,2.4
O=C(Nc1cccc2c1CCCC2)c1ccncc1,0.7,1.7
C=CCN1C(=O)C2(c3ccccc31)C1CCCC=C1C(C#N)=C(N)C2(C#N)C#N (configuration not stated),0.79,0.4
Cn1nccc1C(=O)Nc1ccc(S(=O)(=O)N2CCCC2)cc1,1.6,0.91
COc1ccc(CCN(C)C(=O)CN2C(=O)NC3(CCCCC3C)C2=O)cc1OC (configuration not stated),2.6,0.47
O=C(C1CCCO1)N1CCN(C(=S)Nc2ccc(Cl)c(Cl)c2)CC1 (configuration not stated),0.01,-0.36
CCCCN(C(=O)c1cccc(S(=O)(=O)N(C)c2ccc(C)cc2)c1)c1c(N)n(CCCC)c(=O)[nH]c1=O,0.8,0.2
O=C(CCn1cnc2ccccc2c1=O)Nc1ccc2c(c1)OCCO2,2.8,0.39
CC(=O)O[C@H]1CC[C@@]2(C)[C@@H](CC[C@@H]3[C@@H]2CC[C@]2(C)[C@@H](C(C)(C)O)C[C@@H]32)C1,0.69,0.09
COc1ccc(N2CCOCC2)c(NC(=O)c2cccs2)c1,1.4,-0.75
OCCNc1nc(-c2ccccc2)c2ccccc2n1,0.66,-1.2
COc1ccccc1NS(=O)(=O)c1cccc(C(=O)N/N=C/c2ccc(C)o2)c1,0.24,0.02
O=C(NC(=O)c1ccc(F)cc1)Nc1nc(-c2cccs2)cc(C(F)(F)F)n1,0.96,0.91
O=C(O)c1cccnc1Sc1ccccc1Cl,1.9,0.03
CC1(c2ccc(O)cc2)NC(=O)N(c2ccccc2)N1 (configuration not stated),0.19,-1.3
COc1ccc(C2C(C#N)=C3NC(=O)c4c(sc5c4CCCCC5)N3C3=C2C(=O)CC(C)(C)C3)cc1 (configuration not stated),13*,0.21*
CCc1ccc(NC(=O)NCC2CCN(Cc3cccc(Cl)c3)CC2)cc1,4.9,0.13
COc1ccccc1Oc1ncnc2c1oc1ccccc12,0.66,-1.3
COc1ccccc1Oc1ccc2c(c1)C(=O)N(c1cccc3ncccc13)C2=O,0.3,1.2
CC1CCc2ccccc2N1C(N)=Nc1ccccc1 (configuration not stated),0.03,1.2
C/C(=N/O)c1ccc2c(c1)OCCOCCOc1cc(/C(C)=N/O)ccc1OCCOCCO2,0.29,-0.2
COc1ccc(/C=C(/NC(=O)/C=C/c2ccccc2)C(=O)NCCCCCC(=O)O)cc1,0.54,2.3
CCOC(=O)c1ccc(NC(=O)c2cnccn2)cc1,0.94,-2.1
O=C(NC1CCS(=O)(=O)C1)/C(=C\c1ccc(F)cc1)NC(=O)c1ccccc1 (configuration not stated),2.3,-0.02
COC(=O)N/N=C/c1ccc(-c2ccc(Cl)cc2Cl)o1,0.05,0
CCCCn1c(N)c(N(CCOC)C(=O)COC(=O)/C=C/c2ccc(Br)cc2)c(=O)[nH]c1=O,0.17,-0.53
O=C(COc1ccc(S(=O)(=O)N2CCOCC2)cc1)NCC1CCCO1 (configuration not stated),0.42,-0.1
O=C(NC1CCCCCC1)c1cc(S(=O)(=O)N2CCOCC2)ccc1F,0.19,0.93
COc1ccc(N(Cc2cc3cccc(C)c3[nH]c2=O)C(=O)C2CCCO2)cc1 (configuration not stated),2.5,0.56
# (list continues)
SMILES,KCNQ2 enhance,KCNQ2 enhance baseline
COc1ccccc1OCc1csc(NC(=O)c2ccco2)n1,0.93,-0.19
COc1ccc2c(C(=O)CN3CCSCC3)c[nH]c2c1,0.4,0.92
O=C(O)CSCC(=O)Nc1ccc(Cl)cc1C(F)(F)F,0.43,-0.06
CCc1nc(N[C@@H](Cc2c[nH]c3ccccc23)C(=O)O)c2oc3ccccc3c2n1,0.67,-0.43
Cc1cc(OCC(=O)c2ccc(C(F)(F)F)cc2)n2cnnc2n1,0.99,1.1
CCOC(=O)CSc1nc(N)c(C#N)c(-c2ccc(OC)cc2)c1C#N,0.02,-0.56
O=CNC(n1cnc2c(N3CCOCC3)ncnc21)C(Cl)(Cl)Cl (configuration not stated),0.37,1.5
COc1ccc2[nH]cc(C(=O)C(=O)N3CCCCC3)c2c1,0.5,-0.67
CC(=O)Nc1ccc(S(=O)(=O)Nc2cccc(-n3cnnn3)c2)cc1,0.01,2.1
COc1ccccc1/C=C/CN1CCC(Oc2ccc(C(=O)N3CCCCC3)cc2)CC1,0.03,0.02
CCc1nn(CC(=O)NCCN2CCOCC2)c(=O)c2cc3c(OC)cccc3n12,1.7,-1.3
CCOC(=O)C(C(=O)OCC)C(C[N+](=O)[O-])c1ccccc1 (configuration not stated),0.16,1.9
CC(CC(=O)NNC(=O)c1ccncc1)c1ccccc1 (configuration not stated),0.91,-0.27
N#CNC(=Nc1cccc(F)c1)SCc1ccccc1,0.02,2.1
Cc1onc(CO)c1C(=O)Nc1nccs1,0.06,-1.1
Cc1ccc(C(=O)/C=C/Nc2cccc([N+](=O)[O-])c2)o1,0.96,-0.88
CC(=O)c1ccc(N2CCN(C(=O)Nc3ccc(F)cc3)CC2)cc1,0.38,2
COc1cc(C(=O)N2CCN(C)C(C)C2)ccc1OC1CCN(C(C)=O)CC1 (configuration not stated),2.7,-0.32
O=C1COc2ccc(-c3csc(NCC4CCCO4)n3)cc2N1 (configuration not stated),0.51,-1.1
N#Cc1ncc(C(F)(F)F)cc1Sc1ccccc1N,0.37,0.02
COC(=O)c1sccc1NC(=O)C1CC2CCC1C2 (configuration not stated),1.1,-0.72
CC1CCCN(C(=S)NC2CCCC2)C1 (configuration not stated),0.66,0.02
O=C1CC(c2cc(F)ccc2F)c2cc3c(cc2N1)CCC3 (configuration not stated),0.28,-1.1
CCn1c(C)nc2cc(C(=O)NNC(=S)Nc3ccc(Cl)cc3)ccc21,0.15,-0.43
O=C(COC(=O)c1ccccc1NC(=O)c1ccco1)NCc1ccc2c(c1)OCO2,0.62,-0.43
CC(=O)c1ccc(NC(=O)COC(=O)c2ccccc2N=Nc2ccc(N(C)C)cc2)cc1,0.68,0.79
CC(=O)Nc1ccc(S(=O)(=O)NCc2nc(-c3ccc(C)cc3)no2)cc1,0.74,0.24
O=C(OCC(=O)c1cccs1)c1cccc(C(=O)OCC(=O)c2cccs2)n1,0.51,-1.6
COc1ccccc1/C=N/NC(=O)CC(=O)Nc1ccc(Cl)c(Cl)c1,0.81,0.63
O=C(CCN1C(=O)COc2ccccc21)NCCC1=CCCCC1,0.31,1.1
COC(=O)CSC1=C(C#N)C(c2ccsc2)CC(=O)N1 (configuration not stated),0.23,-0.03
OCCSc1nnc(Nc2ccccc2)s1,0.01,-0.71
Cc1cc(NC(=O)CCN2C(=O)C3C4C=CC(C4)C3C2=O)ccc1Br (configuration not stated),0.68,-1.3
CCCCc1nnc(NC(=O)CSc2nc(=O)cc(N)n2-c2ccccc2)s1,0.02,-0.03
Cc1ccc(C)c(S(=O)(=O)Nc2ccc(C(=O)NCCc3ccccn3)cc2)c1,0.78,-0.47
CCn1nnc2cc(C(=O)NCC(c3ccccc3OC)N(C)C)ccc21 (configuration not stated),0.14,0.79
O=C(NCCO)c1ccc2c(c1)S(=O)(=O)c1ccccc1C2=O,1.5,-0.97
O=C(C1=C(O)C(=O)N(CC2CCCO2)C1c1ccccc1)c1ccco1 (configuration not stated),0.58,-0.32
COc1ccccc1CNC(=O)/C=C/c1cc2c(cc1Br)OCO2,1.2,-0.48
Cc1ccc(N2CCN(/N=C/c3ccccc3)CC2)cc1,0.1,-2.9
COc1ccc(S(=O)(=O)N2CCC(C(=O)Nc3c(F)cccc3F)CC2)cc1,0.3,-1.1
O=C(CNC(=O)c1ccc(Br)o1)NCCc1ccc(F)cc1,1.2,0.36
Cc1ccc(Cn2c(=N)c(C#N)cc3c(=O)n4cccc(C)c4nc32)cc1,0.02,0.02
